Source: PubChem (Fisher Drug Discovery Resource Center)
NPYLR7 agonist: agonists of mosquito NPYLR7 receptor, primary screen, cell-based, Aedes aegypti, calcium fluorescence, mosquito biting behavior; 270,000 compounds, 0.15% hits; AID 1259423, 2018; Aedes aegypti neuropeptide Y-like receptor 7 (NPYLR7); HEK293T NPYLR7/Galpha15, GCaMP6s calcium fluorescence; activation, % at 10 µM; in the data active = activation above about 40%;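 note: 0% = vehicle and 100% = reference agonist at the receptor; some compounds past the cut are filed as inactive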
NPYLR7 agonist max-min: second read-out of NPYLR7 agonist, no call of its own (marks repeat the call); activation, %; measured here: Max-Min RFU normalised activation; some inactives read as strong as hits;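 span of the calcium signal over five minutes; 0% = vehicle and 100% = native peptide agonist; compound fluorescence can raise it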
* hit, by the source's call; & = joins results of further samples.

molecule | NPYLR7 agonist | NPYLR7 agonist max-min
O=C(NCc1cccc(Cl)c1Cl)c1cncn1-c1cccc(-c2ccccc2C(F)(F)F)c1 | 9 | 12
CC(O)Cn1cnc2c1c(=O)n(C)c(=O)n2C (stereo unspecified) | 2 | 1
CCn1c(C)c(C(=O)CN(CC2CCCO2)C(=O)c2ccc([N+](=O)[O-])cc2)c(C)c1C(=O)OC (stereo unspecified) | -2 | 15
CNCc1cnc(NC)nc1 | -5 | -3
O=C(NC1CCCCC1)C(=Cc1ccsc1)C(=O)NC1CCCCC1 | 1 | 0
CC1Cn2c(nnc2-c2cccc(F)c2)S1 (stereo unspecified) | 2 | -1
CC(C)(C)C1C=C(C2=CC(C(C)(C)C)SC2=O)C(=O)S1 (stereo unspecified) | 13 | 12
CCc1nnc(CNC(=O)c2cc(Cn3ccc4ccccc43)[nH]n2)s1 | 1 | -1
O=C(c1ccc(F)cc1)N1CCCC(OCc2ccc(F)cc2F)C1 (stereo unspecified) | -4 | -3
CN(C)c1ccc(C(O)(c2ncnn2C)C(F)(F)F)cc1 (stereo unspecified) | 4&-9 | 4&-9
CCOc1ccc(N2C(=O)CSC2c2ccccc2NC(=O)c2cccc(Br)c2)cc1 (stereo unspecified) | 13 | 10
CCn1nnc2c(N3CCCCC3)ncnc21 | 11 | 3
CCOC(=O)C(c1cc(C)cc(C)c1)C1C=CC(NC(=O)c2cccc(C)c2C)C1 (stereo unspecified) | 1 | -2
COc1ccc(Cl)cc1NC(=O)N[C@@H](Cc1ccccc1)C(=O)N1CCC(C(=O)N2CCCCC2)CC1 | -3 | -8
COc1cccc(C(C)N(C)Cc2nc(-c3cccs3)no2)c1 (stereo unspecified) | -5 | -8
Cc1nnc(-c2ccccc2NC(=O)C2CCCS2)o1 (stereo unspecified) | 7 | 3
CN(Cc1ccno1)C(=O)CC1COCCN1 (stereo unspecified) | -4 | -4
CCCCN(CC(=O)N1CC(=O)N(c2cccc(Cl)c2C)C1)C(=O)c1ccc(-c2ccccc2)cc1 | 8 | 5
Cc1c(-c2nc(-c3ccccc3F)no2)nnn1-c1ccc(Cl)cc1 | 5 | -5
Cn1c(=O)c2c(nc(CN3CCN(c4ccccc4F)CC3)n2CCN2CCOCC2)n(C)c1=O | 2 | 1
CC(C(=O)c1c(N)n(C)c(=O)n(C)c1=O)N1CCCC1c1ccsc1 (stereo unspecified) | -1 | -4
CC1=NN(C(=O)c2ccc(C)o2)C(O)(c2ccccc2)C1 (stereo unspecified) | 18 | 11
C=CCn1c(C)cn2c3c(=O)n(CCOCC)c(=O)n(C)c3nc12 | 22 | 6
CCn1nccc1C(=O)Nc1cc(C)nn1-c1nc2ccc(F)cc2s1 | -9 | -14
Cc1c(N=C2SCC(=O)N2c2c(C)n(C)n(-c3ccccc3)c2=O)c(=O)n(-c2ccccc2)n1C | 8 | 7
Cc1c(CN2CCOC3(CNCCOC3)C2)[nH]c2ccc(F)cc12 (stereo unspecified) | 3 | -1
CN1C(=O)C(S(=O)(=O)c2ccccc2)C2CC1(C)Oc1ccccc12 (stereo unspecified) | 7 | 10
Cc1ccccc1OC1CN(C(=O)CCN2CCCO2)C1 | 4 | 2
COc1ccc(-c2cc(C(=O)N(C)CCc3ccc(OC)c(OC)c3)n3nc(C(C)(C)C)cc3n2)cc1 | 11&-3 | 11&2
Cc1ccc(Cn2ccnc2CN(C(=O)CC(C)C)C2CC2)cc1 | 7 | 7
CCNc1nc2ccccc2c2nnc(-c3ccco3)n12 | 4 | 1
O=C(Oc1cc(OC(=O)c2ccccc2)c2c(c1)O[C@H](c1ccc(OC(=O)c3ccccc3)c(OC(=O)c3ccccc3)c1)[C@@H](OC(=O)c1ccccc1)C2)c1ccccc1 | -6 | -13
CCc1nc2ccc(C(=O)N(C)CCCN(C)C)cn2c1N(CC)CC(=O)N(C)C | 20 | 19
COc1ccccc1CC(=O)Nc1ccc(C#N)cc1 | -2 | -4
Cc1nc2ccccc2nc1N1CCN(C(=O)c2cccc(Cl)c2)CC1 | 3 | 16
CC1(C)CC2CC(C)(CN2CC(=O)NNc2ccccc2C(F)(F)F)C1 (stereo unspecified) | -3 | -5
CCN(C)C1=C(c2c(C)[nH]n(-c3cccc(C)c3C)c2=O)C(=O)N(c2ccccc2F)C1=O | 9&11 | 7&16
C=CCOCC(O)CN(Cc1c(C)nn(-c2cccc(Cl)c2)c1Oc1ccccc1)CC1CC1 (stereo unspecified) | 12 | 10
CC1CCC(N(C(=O)c2cc(C3CC3)[nH]n2)C2CC2)CC1 (stereo unspecified) | -20&1 | -22&6
CC(C)Oc1c(Cl)cccc1NC(=O)C(C)NC(=O)C(C)(C)C (stereo unspecified) | -7 | -9
COc1ccc(CS(=O)(=O)c2nncn2C2CC2)c(Cl)c1 | 3 | 2
CCOC(=O)C1=C(C)NC(=S)NC1c1cn(-c2ccccc2)nc1-c1ccccc1 (stereo unspecified) | -4 | -7
CCCNC(=O)C1(C)CCCN(Cc2ccc(C(=O)OCC)o2)C1 (stereo unspecified) | -9 | -7
CC(C)(C)c1ccc(C(=O)Nc2ccc(O)c(-c3nc4cc(Cl)ccc4o3)c2)cc1 | -2 | -7
CCCc1cc(-c2ccn[nH]2)nc(C)n1 | 2 | -2

Full records, quoted from the list. Screens in order: NPYLR7 agonist | NPYLR7 agonist max-min
CC(O)Cn1cnc2c1c(=O)n(C)c(=O)n2C (stereo unspecified) is listed as 2 | 1
CCN(C)C1=C(c2c(C)[nH]n(-c3cccc(C)c3C)c2=O)C(=O)N(c2ccccc2F)C1=O is listed as 9&11 | 7&16
O=C(NCc1cccc(Cl)c1Cl)c1cncn1-c1cccc(-c2ccccc2C(F)(F)F)c1 is listed as 9 | 12
Cc1c(CN2CCOC3(CNCCOC3)C2)[nH]c2ccc(F)cc12 (stereo unspecified) is listed as 3 | -1
Cc1ccccc1OC1CN(C(=O)CCN2CCCO2)C1 is listed as 4 | 2

More structures:
molecule | NPYLR7 agonist | NPYLR7 agonist max-min
Cc1noc(C)c1CNCc1ccc(S(C)(=O)=O)cc1 | 9 | 9
CC(C)c1ccc2cc(C(=O)N3C[C@H](N(C)C)C[C@H]3CO)[nH]c2c1 | 5 | 2
OC(CN1CCCCC1)C12CC3CC(CC(C3)C1)C2 (stereo unspecified) | 2 | 1
OC(c1cccc(F)c1)(c1cccc(F)c1)c1ccc(CN(Cc2ccsc2)Cc2ccco2)o1 | -10 | -6
Brc1ccc(-c2nnc(CSc3nnc(C4CC4)n3C3CC3)o2)cc1 | 8 | 5
O=C1c2ccccc2-c2c1cccc2C(=O)N1CCN(c2nccc(-c3cccc(C(F)(F)F)c3)n2)CC1 | 13 | 4
COc1ccccc1CCNc1cccc(F)c1C#N | 1 | 0
CCCn1nccc1C(=O)N1CCCN(Cc2ccc(F)cc2)C(C(C)C)C1 (stereo unspecified) | 8 | 3
Cc1ccc(NC(=O)CSc2nccn3nc(-c4ccc(Cl)cc4)cc23)cc1F | 3 | -3
COc1ccccc1N=c1oc2ccc3ccccc3c2cc1C(N)=O | 0 | -4
Cn1c(=O)c2c(ncn2CC(=O)NC2CCSC2=O)n(C)c1=O (stereo unspecified) | 3 | 3
Cc1cc(C)n2nc(C(=O)N(C)CC3CCCCO3)nc2n1 (stereo unspecified) | 5 | -12
Cc1cccc(C(=O)NC2CCC(C(=O)N3CCSCC3)CC2)n1 (stereo unspecified) | -5 | -7
Nc1nc2ccc(Cl)cc2c2nc(-c3ccco3)nn12 | -7&-9 | -13&-1
CC(NC(=O)c1ccc(F)c(S(N)(=O)=O)c1)c1ccc(C#N)cc1 (stereo unspecified) | -1 | -5
c1coc(CCn2ccnc2-c2cccc3nonc23)c1 | -3 | -4
O=C(NCc1ccc2c(c1)OCO2)C1COC2(CCCCC2)N1C(=O)C1CC1 (stereo unspecified) | -4 | 8
CC(C)Sc1ccc(Cl)cc1NC(=O)C1COCCO1 (stereo unspecified) | 10 | 6
CNS(=O)(=O)c1ccc(-c2ccc(/C=C(/C#N)c3ccccn3)o2)cc1 | 4 | 1
O=C(CCN(CCc1ccccc1)c1nc(-c2ccc(F)cc2)nc2ccccc12)NC1CC1 | 19 | 19
Cc1[nH]n(-c2nc(-c3ccccc3)cs2)c(=O)c1N=Nc1ccc(S(N)(=O)=O)cc1 | -9 | -13
Cn1ccnc1CN(CCO)C(=O)C1CC=CCC1 (stereo unspecified) | -1 | 9
COCC(=O)N(CCC(C)C)Cc1c(-c2ccccc2)noc1N1CCN(C)CC1 | 9 | 13
CC(C)c1nc2ccccc2c2c1C(=O)N(CCc1ccncc1)C2=O | -7 | -10
CS(=O)(=O)Cc1ccc(C(=O)N2CCC2c2ccccc2)cc1 (stereo unspecified) | 4 | 4
CCSc1nnc(Cn2c(=O)sc3ccccc32)n1CCc1ccccc1 | 0 | 1
CC(C)CNc1nc(-c2ccc(Cl)cc2)nc2cc(Cl)ccc12 | -4 | 2
Cc1cccc(CC(=O)NCC(c2ccsc2)N(C)C)c1 (stereo unspecified) | 6 | -1
O=C1NS(=O)(=O)c2ccccc21 | -12 | -21
O=[N+]([O-])c1cc2c(cc1CC1CC1(Cl)Cl)OCCO2 (stereo unspecified) | 3 | 1
CCC(C(=O)Nn1cnc2c(cnn2C(C)(C)C)c1=O)c1ccccc1 (stereo unspecified) | 0 | -4
COC(=O)NC(c1cc(C)ccc1C)C(Br)(Br)Br (stereo unspecified) | -5 | -10
N#CSC(C#N)Cc1ccc(Cl)c(Cl)c1 (stereo unspecified) | 0 | -2
Cc1sc2nc(CN(CC(O)COCC(C)C)C3CCCCC3)[nH]c(=O)c2c1C (stereo unspecified) | 2 | 14
O=C(NCCc1ccccc1)C1CC(=O)N(Cc2ccccc2)C(=Nc2ccc(Cl)cc2)S1 (stereo unspecified) | -3 | -5
CC=CC=CC(=O)N1CCN(S(=O)(=O)c2ccccc2)CC1 | 7 | 11
O=C(CSc1ccccc1)N1CCN(c2nccc(-c3ccc(Oc4ccccc4)cc3)n2)CC1 | 3 | 0
COCC(=O)O[C@]1(CCN(C)CCCc2nc3ccccc3[nH]2)CCc2cc(F)ccc2[C@@H]1C(C)C | 3 | -32
C1CCCN(c2nonc2-[n+]2nc3nonc3[nH]2)CC1 | 5 | 2
Cc1ccc(C(=O)N2C(C(=O)N3CCOCC3)COC23CCN(C(=O)c2ccccc2C)CC3)cc1 (stereo unspecified) | 0 | 10
OC(c1ccc(Cl)c(F)c1)c1ncc(-c2cccc3ccccc23)[nH]1 (stereo unspecified) | -1 | -2
CCn1c(C)cc(O)c(C(c2ccccn2)N2CCCCC2)c1=O (stereo unspecified) | 11 | 5
COc1ccc(S(=O)(=O)Oc2cc(CN(CCN(C)C)C(=O)CC(C)(C)C)ccc2OC)cc1 | 21 | 7
Cc1cc(C)c(S(=O)(=O)N(C)C(=O)C=C(C2CC2)C2CC2)c(C)c1 | 10 | 8
Cc1ccc(N2C(=O)CC(Sc3nc4c(cc3C#N)CCCCC4)C2=O)cc1 (stereo unspecified) | -1 | -3
Cc1c(C(=O)N2CCCCC2)c(C(F)(F)F)nn1C1CCCN(C)C1 (stereo unspecified) | 6 | 0
COc1ccc(C(=O)Nc2ccc(O)c(-c3nc4cc(C)c(C)cc4o3)c2)cc1 | 13 | 11
COCCOCC(=O)N1CCN(Cc2cc(=O)c(OCc3cc(C)cc(C)c3)co2)CC1 | 7 | 6
CCCCSC1=NN2CCCC(=O)N=C2S1 | -1 | -3
NCCCCNCCCN | -4&-3 | -8&31
COc1ccc(-c2noc(CN3CCCC4(CCCN(Cc5ccccc5)C4)C3)n2)cc1 (stereo unspecified) | 1 | -2
O=C(Nc1ccc(-c2onc3c2CCc2ccccc2-3)cc1)C(F)(F)C(F)(F)C(F)(F)F | 12 | 13
O=C1C[C@H]2CC[C@@H](CN1)N2C(=O)CCc1c[nH]c2ccccc12 | 7 | 5
CNC(=O)c1cccnc1N1CCC(Oc2ccc(F)cc2)CC1 | 6 | 6
CC(=O)Nc1ccc(Cl)c(C(=O)NCc2cn3ccccc3n2)c1 | 17 | 6
N#CNC1=NCN(CCN2CCOCC2)CN1 | 0 | -1
Cc1oc(-c2cc(F)cc(F)c2)nc1COc1ccc(CC(N)=O)cc1 | 0 | -5
CSC1=NC(C)(C)CC12C=CC(=O)C(C)=C2 (stereo unspecified) | 0 | -1
CN1CCCN(C(=O)CC(c2ccccc2)c2ccccc2F)CC1 (stereo unspecified) | 3 | 0
O=C(c1scc2c1OCCO2)N1CC[C@@H](c2ccc(F)cc2)[C@H](O)C1 | -2 | 0
COc1nc(-c2ccc(C(F)(F)F)cc2)n(-c2ccc(NC(=O)c3ccccc3Br)cc2)n1 | 25 | 34
COc1nc(C)ccc1CNC(=O)c1ccc(-c2nc(C)cs2)cc1 | 0 | -3

Retrieved one by one from the list above:
molecule | NPYLR7 agonist | NPYLR7 agonist max-min
NCCCCNCCCN | -4&-3 | -8&31
CNC(=O)c1cccnc1N1CCC(Oc2ccc(F)cc2)CC1 | 6 | 6

Copied from the list:
Entry of `Cc1ccccc1OC1CN(C(=O)CCN2CCCO2)C1` under NPYLR7 agonist: 4
Entry of `CC(C)c1nc2ccccc2c2c1C(=O)N(CCc1ccncc1)C2=O` under NPYLR7 agonist max-min: -10
Entry of `CCn1c(C)cc(O)c(C(c2ccccn2)N2CCCCC2)c1=O` (stereo unspecified) under NPYLR7 agonist: 11
Entry of `CCOc1ccc(N2C(=O)CSC2c2ccccc2NC(=O)c2cccc(Br)c2)cc1` (stereo unspecified) under NPYLR7 agonist: 13

Only part of the results is shown; rates above refer to the full screens.
